CtBP-E1A inh: inhibitors of CtBP/E1A interaction; AlphaScreen GST-E1A/His-CtBP binding, 1536-well; stronger effect = lower value; control for the full effect not named in the record; activity change, % (test concentration not listed); AID 651724; 340,000 compounds, 0.49% hits; in the data active means activity change below about -65%; inconclusive means about -30% to -65%; inactive means above about -30%; also: % is scaled to controls: 0 for no effect and ±100 for the full control effect
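Homogeneous bead-based format: GST-tagged E1A captured on glutathione donor beads, His-tagged CtBP on nickel acceptor beads; compounds precede bead addition by 2 h at 37 °C.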
Sfp PPTase inh: Sfp phosphopantetheinyl transferase inhibition | Potency, µM, inactives show max response, negative = inhibition, actives largely listed as inhibitors | 310,000 compounds, 3.5% hits | Biochemical Sfp PPTase activity, qHTS | Q9F4F7; active = well fitted inhibition curve with a large enough effect; inconclusive = small, poorly fitted or top-dose-only effect, or another doubt; inactive = no such curve, though single readings can be large or run the other way;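 also: the enzyme is Sfp with the accession as filed and its product quenches rhodamine fluorescence; potency is read from the fitted curve at half-maximal effect; 0% = enzyme reaction without inhibitor and -100% = no enzyme wells; top concentration of the series not given in the record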
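With Hepes-Na pH 7.6 buffer containing 10 mM MgCl2, Sfp (15 nM) modified BHQ-2-YbbR (12.5 uM) using rhodamine-CoA (5 uM). Two reads 30 minutes apart at 525/598 nm yielded each well's rate.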
Menin-MLL FL inh: displaces fluorescein MLL peptide from human menin. Fluorescence polarization, fluorescein-MLL peptide displacement from menin. FP activity change, % at 61.4 µM. 290,000 tested, under 10 active; inconclusive = falling polarisation curve, or a change in total fluorescence; inactive = total fluorescence flat and polarisation flat or rising; no compound was filed as active; the % refers to the polarisation; negative = inhibition;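 also: % of control where 0% means no effect; inhibitors lower the polarisation; unlabelled MLL peptide was the positive control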
gsp agonist: activates gsp, the McCune-Albright syndrome mutation; Potency, µM (top dose mostly 76.9 µM), inactives show at the top dose activation (cAMP increase), actives largely listed as activators; 340,000 compounds, 0.13% hits; gsp mutant cells, cAMP HTRF, 30 min; control for the full effect not named in the record; active = well fitted activation curve with a large enough effect; inconclusive = small, poorly fitted or top-dose-only effect, or another doubt; inactive = no such curve, though single readings can be large or run the other way; cell line not stated here;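 also: phosphodiesterase inhibitor Ro 20-1724 added with compounds to block cAMP breakdown; potency is read from the fitted curve at half-maximal effect; nearly all actives have a fitted effect of over 60% in size; about a fifth of the inactives were tested at one dose only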
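Cells stably selected in G418 were plated at 2000/well, grown 16-24 hr, then given compounds in DMSO with the PDE inhibitor […] (300 uM solution added) for 30 min at 37C; cAMP was read by HTRF.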
gsp antagonist: antagonists of gsp mutant (McCune-Albright syndrome); 340,000 compounds, 0.4% hits; gsp-mutant cells, cAMP HTRF, 30 min; control for the full effect not named in the record; Potency, µM (series often up to 76.9 µM), inactives show top-dose activity change, negative = inhibition, usual class: inhibitors; active = falling curve of any shape with a large fitted effect; inconclusive = falling curve, mostly with a smaller effect; inactive = flat or rising curve; cell line not stated here;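 also: intracellular cAMP measured with PDE inhibitor Ro 20-1724 present during compound exposure; potency is read from the fitted curve at half-maximal effect; % is scaled to controls: 0 for no effect and ±100 for the full control effect; nearly all actives have a fitted effect of over 65% in size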
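Cells, 2000/well, grown 16–24 h in DMEM 10% FBS with 0.5 mg/ml G418, then compounds plus […] (300 uM addition stock), 30 min at 37C. cAMP read by HTRF (cAMP-d2 and anti-cAMP antibody-K in lysis buffer) after 30 min RT.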
ClpP mod: qHTS Assay for Activators of ClpP; ATP-dependent Clp protease proteolytic subunit (Bacillus subtilis (strain 168)), P80244; purified B. subtilis ClpP, FRET peptide cleavage, 20 min; 340,000 compounds, 1.9% hits; Potency, µM (highest dose often 57.5 µM), inactives show top-dose activity change, negative = active; active = well fitted falling curve with a large enough effect; inconclusive = small, poorly fitted or top-dose-only effect; inactive = no such curve, though single readings can be large or run the other way; also: potency is read from the fitted curve at half-maximal effect; the source files actives as falling curves though it sought activators and does not explain the sign; nearly all actives have a fitted effect of over 65% in size; many hits overshoot -100%
Target sequence (P80244 whole entry, looked up): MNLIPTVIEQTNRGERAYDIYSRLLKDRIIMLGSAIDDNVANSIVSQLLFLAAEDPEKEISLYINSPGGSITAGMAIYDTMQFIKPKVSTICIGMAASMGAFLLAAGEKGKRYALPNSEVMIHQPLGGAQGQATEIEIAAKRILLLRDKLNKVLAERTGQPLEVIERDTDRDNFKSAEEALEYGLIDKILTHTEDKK
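FRET quenching reversal measured ClpP activation: 10 microg/mL B. subtilis ClpP at pH 8 with the FRET-FV decapeptide, read at 430 nm after 320 nm excitation. The 20-min minus 0-min signal was scaled between DMSO/no-enzyme wells and ADEP (5.8 microM final).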
TRPV1 PAM: human TRPV1 potentiation; TRPV1-expressing cells, Fluo-8 calcium influx, capsaicin EC20 potentiation; host cell line not named in the record; control for the full effect not named in the record; Q8NER1; potentiation, % at 8.33 µM; 320,000 compounds, 0.02% hits; AID 540277; active means potentiation above 80%; inconclusive means 30% to 80%; inactive means below 30%; also: 0% is about no effect
Target sequence (Q8NER1 whole entry, looked up): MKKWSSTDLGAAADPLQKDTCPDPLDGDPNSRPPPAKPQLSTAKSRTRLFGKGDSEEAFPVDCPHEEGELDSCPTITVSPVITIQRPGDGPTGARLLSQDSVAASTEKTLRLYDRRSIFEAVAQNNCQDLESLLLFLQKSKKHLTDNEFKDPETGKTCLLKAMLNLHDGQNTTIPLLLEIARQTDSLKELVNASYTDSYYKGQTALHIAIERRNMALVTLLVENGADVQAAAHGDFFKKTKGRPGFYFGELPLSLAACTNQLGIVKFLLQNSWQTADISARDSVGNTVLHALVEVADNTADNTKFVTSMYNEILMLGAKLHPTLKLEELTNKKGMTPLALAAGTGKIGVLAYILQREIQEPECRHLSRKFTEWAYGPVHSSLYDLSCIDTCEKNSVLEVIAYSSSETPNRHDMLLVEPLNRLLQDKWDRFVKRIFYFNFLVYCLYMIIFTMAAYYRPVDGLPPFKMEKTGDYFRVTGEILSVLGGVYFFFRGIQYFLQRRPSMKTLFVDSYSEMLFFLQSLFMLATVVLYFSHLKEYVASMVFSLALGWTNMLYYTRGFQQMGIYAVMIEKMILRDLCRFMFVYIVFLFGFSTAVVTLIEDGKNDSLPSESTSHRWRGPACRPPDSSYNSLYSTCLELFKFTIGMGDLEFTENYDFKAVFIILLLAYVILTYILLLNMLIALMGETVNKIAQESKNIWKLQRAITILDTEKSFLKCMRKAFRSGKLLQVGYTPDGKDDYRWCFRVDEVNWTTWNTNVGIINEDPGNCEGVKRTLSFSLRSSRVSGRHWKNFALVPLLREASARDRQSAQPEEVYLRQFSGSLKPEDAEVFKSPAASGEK
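Fluo-8 calcium influx in TRPV1-expressing cells, kinetic read (ex 480/em 520 nm). Compound added and read 3 min for agonist activity, followed by capsaicin at EC20 final and 2 min further read for enhancement.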
* hit, by the source's call; ? = inconclusive; / = not tested or not shown; [ ] = remark or other dose.

Molecule,TRPV1 PAM,ClpP mod,gsp agonist,Sfp PPTase inh,Menin-MLL FL inh,CtBP-E1A inh,gsp antagonist
C/C(CC(=O)Nc1ccc2c(c1)OCCO2)=N\NC(=O)COc1ccc(Cl)c(C)c1,4,/,25%,3%,-9.7,0,-2%
Cc1cc(C(=O)NC2CCCN(Cc3ccccc3F)C2)no1 (stereo not given),-8,-1.5%,-56%[inhibitor],13%,-2.8,/,9%
O/N=C1\CCCC\C1=C/c1ccccc1,13,?,1%,4%,-6.8,-4,-17%
CCOc1ccc(OCc2cccc(C(=O)O)c2)cc1,-21,-1.1%,11%,-6%,-0.7,-1,5%
CC1(C)CC(=O)C2=C(C1)NC1=C(C(=O)c3ccccc31)C2c1ccccc1 (stereo not given),-6,-1.5%,?,0%,-1.9,0,-22%
CC1(c2nnc(-c3cccc(Cl)c3)o2)CC(c2ccc(F)cc2)=NO1 (stereo not given),/,-5.8%,/,/,/,-1,-4%
O=c1c(-c2ccccc2)c(O)c2cccc3c2n1CCC3,0,-5.6%,23%,15%,-1.1,2,3%
O=C(OCc1nnc(-c2ccccc2)o1)C12CC3CC(CC(Br)(C3)C1)C2,-12,-4.0%,-12%,10%,2.8,/,-21%
Cc1noc(C)c1C(=O)OCC(=O)NC(=O)c1ccc(C(C)(C)C)cc1,/,1.2%,-28%,/,/,18,/
CN(C)Cc1c(O)ccc2occ(C(O)c3ccccc3)c12 (stereo not given),0,?,13%,-9%,4.4,-1,4%

(next part)
Molecule,TRPV1 PAM,ClpP mod,gsp agonist,Sfp PPTase inh,Menin-MLL FL inh,CtBP-E1A inh,gsp antagonist
O=C(NCCN1CCCCC1)c1ccc(Oc2cc(Cl)cc(Cl)c2)o1,-8,/,10%[15.4 µM],17%,0.8,-3,5%
CCc1ccccc1NC(=O)C1CCCN(c2nccc(C)n2)C1 (stereo not given),-1,/,-7%[15.4 µM],6%,-5.2,-2,9%
CCn1ncc(Cl)c1C(=O)Nc1cc([N+](=O)[O-])ccc1OC,-10,-1.7%,-23%,-6%,1.1,-5,10%
CC(C)C(=O)O/N=C(\N)c1ccccn1,-14,1.3%,-24%,21%,/,11,2%
O=C(COC(=O)c1cccc(S(=O)(=O)N2CCOCC2)c1)Nc1ccc(Cl)cn1,5,-0.7%,7%,/,/,/,-11%
Cc1cc(C)n(CC(O)Cn2c3ccc(Cl)cc3c3cc(Cl)ccc32)c(=O)n1 (stereo not given),?,-2.2%,-6%,-1%,4.8,-3,-6%
O=S(=O)(c1ccccc1)N1CCC(=NO)CC1,-9,/,-8%[15.4 µM],5%,-4.0,-19,-6%
NC(=O)C1(Nc2ccc(-c3ccccc3)cc2)CCCC1,/,-26%,2%,/,/,17,1%
O=C(c1ccc(=O)[nH]c1)N(Cc1cccs1)C1(C(=O)NC2CCCC2)CCCCC1,-13,-1.7%,-10%,-6%,2.7,1,1%
COc1ccc(CNC(=O)COC(=O)c2c(C)nn(-c3ccccc3)c2C)cc1OC,-14,-3.4%,5%[15.4 µM],/,/,1,-23%

(list continues)
Molecule,TRPV1 PAM,ClpP mod,gsp agonist,Sfp PPTase inh,Menin-MLL FL inh,CtBP-E1A inh,gsp antagonist
C=CCNC(=S)NNC(=O)c1ccc(C)c(Cl)c1,6,/,14%,?,-1.8,5,3%
Cc1nc2sc3c(c2c(=O)o1)CC(C)(C)OC3,-3,-26%,-30%[inhibitor],-7%,5.5,4,-3%
CCOC(=O)N1CCN(C(=O)c2cccn3c(=O)c4sccc4nc23)CC1,7,25µM*,?,1%,3.5,-7,9%
O=C(NC(=S)Nn1cnnc1)c1ccccc1,7,1.3%,/,/,/,8,10%
CC1Cc2ccccc2N1C(=O)CSc1nc2ccccc2o1 (stereo not given),-6,0.2%,2%,-6%,4.3,5,?
O=C(Nc1nnc(-c2cccnc2)o1)c1cccc(Cl)c1,11,1.4%,29%[15.4 µM],16%,-4.8,-17,-16%
COc1cccc(C(=O)N(Cc2ccccc2)Cc2cc3cc4c(cc3[nH]c2=O)OCCO4)c1,-17,28µM*,-1%,2%,-1.1,-12,-5%
O=C(N/N=C1/CCSC1)c1cc(Br)ccc1O,-9,/,4%[15.4 µM],7%,-3.1,-12,/
Fc1ccccc1C1c2[nH]c3ccccc3c2CCN1Cc1cccn1-c1ncccn1 (stereo not given),-3,/,37%,-13%,0.8,-22,-12%
Cc1cc(NC(=O)c2ccccc2Cl)c(C(C)C)cc1O,5,0.4%,-9%,19%,-0.5,0,-1%

Other entries.
Molecule,TRPV1 PAM,ClpP mod,gsp agonist,Sfp PPTase inh,Menin-MLL FL inh,CtBP-E1A inh,gsp antagonist
O=S(=O)(Nc1n[nH]c(C(F)(F)F)n1)c1ccccc1,3,-1.1%,-8%,-26%,2.7,2,-1%
CC(C)C[C@@H](CN)NC(=O)c1nc[nH]c1C(=O)N[C@@H](Cc1c[nH]c2ccccc12)C(=O)CNC[C@H](C)NC(=O)c1nc[nH]c1C(=O)N[C@@H](C)C(=O)O,/,0.6%,/,/,/,-15,5%
N#CC(CCc1ccccn1)c1ccccc1 (stereo not given),/,-1.7%,5%[15.4 µM],/,/,4,5%
COc1ccc(S(=O)(=O)N2CCCOC2CNC(=O)C(=O)NCc2ccccc2F)cc1C (stereo not given),10,1.4%,-2%[15.4 µM],12%,/,5,-1%
O=C(C1CCCN(S(=O)(=O)c2cnc[nH]2)C1)N1CCN(Cc2ccccc2)CC1 (stereo not given),-2,-3.1%,-4%,-8%,0.5,-2,4%
CCN(CC)S(=O)(=O)c1ccc(N/N=C(\C)c2cccnc2)nc1,-2,0.1%,2%,-17%,-4.5,5,-1%
COc1ccc(/C=C(\NC(=O)c2ccco2)C(=O)N2CCOCC2)cc1,7,/,29%,-3%,-0.5,0,3%
Cc1cc(Br)ccc1SCC(=O)OCC(O)=C(C#N)c1nc2ccccc2[nH]1,/,-7.0%,3%,/,/,0,-11%
Nc1nc2ccc(C(=O)NC3CCCCC3)cc2s1,-10,-6.0%,-4%,19%,1.7,-15,0%
Cc1cc(C)c2nc(-c3ccccn3)cc(C(=O)n3cccn3)c2c1,-7,/,-11%[15.4 µM],-22%,?,2,-11%

Further entries:
Molecule,TRPV1 PAM,ClpP mod,gsp agonist,Sfp PPTase inh,Menin-MLL FL inh,CtBP-E1A inh,gsp antagonist
CC(C)S(=O)(=O)c1ccc(C(=O)Nc2ccc(F)cc2F)cn1,-4,/,-2%[15.4 µM],18%,-6.8,-3,9%
CC1(C)Oc2cc(N)c([N+](=O)[O-])cc2O1,-7,32µM*,4%,4%,-0.4,-5,3%
O=C(CN1CCN(CC(=O)Nc2cccc(F)c2)CC1)NCC1(N2CCOCC2)CCCCC1,6,-0.4%,4%,/,/,-1,-11%
C[C@]12c3[nH]c4ccccc4c3CCN1C(=O)C(CC(=O)NCC13CC4CC(CC(C4)C1)C3)C[C@@H]2C(=O)N1CCOCC1 (stereo not given in full),/,-1.6%,/,/,/,-5,-8%
CCOc1nc(-c2ccc(OC)cc2)ccc1-c1noc(C)n1,15,-7.7%,2%,?,1.3,8,-8%
Cc1c(Nc2ncnc3c2cnn3-c2ccccc2)c(=O)n(-c2ccccc2)n1C,4,-2.1%,0%,5%,-1.8,-4,-4%
Cc1ccc(S(=O)(=O)N2[C@@H](c3ccccc3)C(C(=O)O)=CC[C@H]2c2ccc(Cl)cc2)cc1,-12,-2.2%,-3%,/,/,-22,-9%
O=C(CN1CCN(c2ccccc2)CC1)Nc1c(C(=O)C2CC2)oc2ccccc12,-24,-2.0%,15%,0%,-0.5,-8,-4%
Cc1cc(C)c(S(=O)(=O)N2CCOC2CNC(=O)C(=O)NCCCn2ccnc2)c(C)c1 (stereo not given),-6,/,-1%[15.4 µM],6%,2.4,?,6%
COc1ccc(CCNC(=O)COC(=O)c2ccc(OC)cc2OC)cc1,-22,0.3%,-8%[15.4 µM],/,/,3,6%

(listing goes on)
Molecule,TRPV1 PAM,ClpP mod,gsp agonist,Sfp PPTase inh,Menin-MLL FL inh,CtBP-E1A inh,gsp antagonist
COc1ccc(NC(=O)CN2CCN(c3ccccc3C)CC2)cc1,-5,/,?,20%,5.2,2,6%
Cc1ccc(C)c(S(=O)(=O)N2CC(=O)Nc3ccccc32)c1,-15,3.4%,10%,11%,0.1,2,1%
Cc1nn(Cc2ccc(Cl)cc2)c(C)c1NC(=O)CCCn1nc(C)c([N+](=O)[O-])c1C,6,-1.4%,-9%,12%,6.6,-14,4%
CCCn1c2ccccc2c2nnc(SC(CC)C(=O)Nc3cc(C)on3)nc21 (stereo not given),-1,-1.6%,?,4%,0.6,-24,11%
COc1ccc(NC(=O)c2cc(S(=O)(=O)N3CCCC3)cn2C)cc1Cl,-22,51%,12%,13%,-0.3,0,-15%
CCN(CC)CC(C)(C)COC(=O)c1oc2ccccc2c1C,-12,/,12%[15.4 µM],3%,0.8,8,9%
c1ccc(CCCCN2C(Nc3ccccc3)=NC[C@@H]2Cc2ccccc2)cc1,-7,-0.2%,/,/,/,-10,7%
Cc1ccc(CNC(=O)c2nnn(CC(=O)Nc3cccc(C)c3C)c2N)cc1,8,1.5%,-14%,-18%,3.5,-2,14%
Cc1ccc(S(=O)(=O)CCC(=O)Nc2nc3c(s2)CCCC3)cc1,11,1.5%,-34%[inhibitor],2%,3.7,-3,3%
CCCOc1ccc(Cl)cc1/C=C1/C(=O)ON=C1C,2,/,0%,?,1.1,9,9%
CC(=O)NC(Cc1cc(C)ccc1C)C(=O)N1CCN(C(=O)c2ccccc2Br)CC1 (stereo not given),-15,-0.6%,-16%,14%,0.4,0,12%

Screens deposited in PubChem by National Center for Advancing Translational Sciences (NCATS).

This is a random part of the collection; any-hit rate near 5.3%.
